# Cruzain inh noDet = qHTS Assay for Promiscuous and Specific Inhibitors of Cruzain (without detergent); purified cruzain, Z-FR-AMC fluorescence, no detergent; Potency, µM, inactives show max response, negative = inhibition, hits mostly inhibitors; hit rate 2.3% among 200,000; AID 1476, 2009; active = well fitted curve in the direction sought with a large enough effect; inconclusive = small, poorly fitted or top-dose-only effect, or another doubt; inactive = no such curve, though single readings can be large; an effect the other way counts as inactive or inconclusive;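 also: plate controls were enzyme without inhibitor for no effect and buffer without enzyme for full effect; nearly all actives have a fitted effect of over 40% in size; top concentration of the series not given in the record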
# Target sequence (P25779 123-467 limits assumed): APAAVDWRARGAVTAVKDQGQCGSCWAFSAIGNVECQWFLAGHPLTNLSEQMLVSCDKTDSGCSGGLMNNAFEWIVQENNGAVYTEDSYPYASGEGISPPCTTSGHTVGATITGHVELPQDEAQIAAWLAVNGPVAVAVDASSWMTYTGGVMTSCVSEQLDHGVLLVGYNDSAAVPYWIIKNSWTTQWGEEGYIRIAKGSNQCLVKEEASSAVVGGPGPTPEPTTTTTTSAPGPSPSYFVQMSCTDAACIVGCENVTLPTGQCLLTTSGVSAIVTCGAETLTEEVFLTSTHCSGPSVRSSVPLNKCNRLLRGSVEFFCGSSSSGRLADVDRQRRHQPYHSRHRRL
#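 Purified cruzain at 1.5 nM, pre-incubated 15 min with compound at room temperature in 100 mM sodium acetate pH 5.5, 5 mM DTT, 0.00005% Triton X-100. Reaction started with 2 uM Z-FR-AMC; AMC fluorescence increase over 60 s gives rate.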
# MARV entry inh = qHTS for inhibitors of binding or entry into cells for Marburg Virus | Marburg virus pseudotyped entry inhibition, cell reporter; control for the full effect not named in the record; about a third of the inactives were read at about 46 µM | AID 540276, 2011 | Potency, µM (top dose mostly 37.8 µM), without a hit: at the highest dose activity change, negative = inhibition, actives largely listed as inhibitors | hit rate 1.8% among 300,000; active = well fitted inhibition curve with a large enough effect; inconclusive = small, poorly fitted or top-dose-only effect, or effect the other way; inactive = flat fitted curve, though single readings scatter; tested in HEK293 cells; about a fifth of its hits are not listed in these tables; also: % is scaled to controls: 0 for no effect and ±100 for the full control effect; luciferase read-out
# 2A StopGo = High Throughput Screening for Foot and Mouth Disease Virus Antivirals; Potency, µM (doses to about 57.9 µM), without a hit: top-dose signal change, negative = less light; AID 1159524, 2015; human cells with a luciferase reporter of 2A StopGo recoding; control for the full effect not named in the record; hit rate 1.2% among 410,000; active = well fitted falling curve with a large enough effect; inconclusive = small, poorly fitted or top-dose-only effect; inactive = no such curve, though single readings can be large or run the other way; tested in HEK293T cells; also: % is scaled to controls: 0 for no effect and ±100 for the full control effect; nearly all actives have a fitted effect of over 45% in size; luciferase light after 4 h
# LASV entry inh = qHTS for Inhibitors of binding or entry into cells for Lassa Virus; Lassa virus pseudotype entry inhibition, cell reporter; control for the full effect not named in the record; Potency, µM (highest dose often 37.9 µM), for inactives: at the highest dose activity change, negative = inhibition, most hits filed as inhibitors; hit rate 1.2% among 300,000; AID 540256, 2011; active means well fitted inhibition curve with a large enough effect; inconclusive means small, poorly fitted or top-dose-only effect, or effect the other way; inactive means flat fitted curve, though single readings scatter; tested in HEK293 cells; also: % is scaled to controls: 0 for no effect and ±100 for the full control effect; nearly all actives have a fitted effect of over 50% in size; luciferase read-out
# Cruzain inh Det = qHTS Assay for Promiscuous and Specific Inhibitors of Cruzain (with detergent) | Cruzipain (Trypanosoma cruzi), P25779 | purified cruzain, Z-FR-AMC fluorescence, 0.01% Triton | Potency, µM, for inactives: max response, negative = inhibition, actives largely listed as inhibitors | hit rate 0.43% among 200,000 | AID 1478, 2009; active = well fitted curve in the direction sought with a large enough effect; inconclusive = small, poorly fitted or top-dose-only effect, or another doubt; inactive = no such curve, though single readings can be large; an effect the other way counts as inactive or inconclusive;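 also: plate controls were neutral wells for no effect and buffer without enzyme for full effect; nearly all actives have a fitted effect of over 40% in size; top concentration of the series not given in the record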
#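 Enzyme 1.5 nM, Z-FR-AMC 2 uM, NaOAc 100 mM pH 5.5, DTT 5 mM, Triton X-100 0.01%; 15 min RT compound preincubation; kinetic ex360/em450, 60 s delta.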
# NS1 function inh = qHTS Assay for Inhibitors of Influenza NS1 Protein Function. S. cerevisiae slowed by influenza A NS1, growth recovery by OD600. Potency, µM (highest dose often 46.1 µM), without a hit: at the top dose activity, positive = more growth. hit rate 0.4% among 270,000. AID 2326, 2010; also: actives are rising curves; nearly all actives have a fitted effect of over 50% in size
#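 A cell-based growth assay was used: compounds that relieve NS1-induced slow growth of budding yeast raise OD600. Assay medium was yeast nitrogen base with ammonium sulphate and -URA supplement, pH 6.0, with 2% galactose.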
# RE007 growth inh = qHTS Assay for Inhibitors of the HIV-1 protein Vpr; S. pombe RE007 Vpr strain, BacTiter-Glo ATP luminescence, 24 h; control for the full effect not named in the record; Potency, µM (series often up to 92.2 µM), for inactives: top-dose activity change, negative = less growth; hit rate 0.21% among 360,000; AID 651644, 2012; active = well fitted falling curve with a large enough effect; inconclusive = small, poorly fitted or top-dose-only effect; inactive = no such curve, though single readings can be large or run the other way;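 also: % is scaled to controls: 0 for no effect and ±100 for the full control effect; nearly all actives have a fitted effect of over 50% in size; the assay follows cell death caused by Vpr and the record does not say whether a fall means rescue or toxicity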
#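 Fission yeast strain RE007, carrying one chromosomally integrated HIV-1 vpr copy, was seeded at OD 0.01 in PMG+AL medium with 23 nL pinned compound. After 24 h at 30 °C and 99% humidity, viability was read by BacTiter-Glo luminescence.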
# SARS PLP yeast = qHTS of Yeast-based Assay for SARS-CoV PLP. S. cerevisiae expressing SARS-CoV PLpro, growth rescue; control for the full effect not named in the record. hit rate 0.19% among 330,000. Potency, µM (top dose mostly 32.9 µM), without a hit: at the top dose activity, positive = growth rescue. AID 485353, 2010; also: 0% is about no effect; nearly all actives have a fitted effect of over 55% in size; growth read by luminescence after 48 h
# The depositor's hits bear a star; ? = inconclusive; . = not tested or not shown; & = joins results of further samples; [ ] = remark or other dose. Unless noted, calls follow the shape of the dose curve; as a rule, active means well fitted rising curve with a large enough effect; inconclusive means small, poorly fitted or top-dose-only effect; inactive means no such curve, though single readings can be large or run the other way. Potency is read from the fitted curve at half-maximal effect.
SMILES,Cruzain inh noDet,MARV entry inh,2A StopGo,LASV entry inh,Cruzain inh Det,NS1 function inh,RE007 growth inh,SARS PLP yeast
O=C1C(NS(=O)(=O)c2ccc(Br)cc2)=C(N2CCCCC2)C(=O)c2ccccc21,.,.,-8%,.,.,-19%,-26%,0%
COc1ccc(NC(=O)c2cc3nc(-c4ccc(C)c(C)c4)cc(C(F)(F)F)n3n2)cc1,11%,1%[46.1 µM],-21%,16%[46.1 µM],-0.6%,.,.,.
O=C1CCCN2N=C(SCC(=O)Nc3nc4ccccc4s3)SC2=N1,.,-5%,3%,-13%,.,5%,1%,-1%
CCc1cc(C(=O)COc2ccccc2F)c(O)cc1O,-8%,-25%,-17%,-1%,-11%,-47%,-12%,-24%
CCC(CCC(=O)Nc1ccn(-c2ccccc2)n1)C(=O)O (stereo unspecified),-2%,-1%,20%,15%,4.5%,5%,-1%,3%
Cc1nn(C)cc1S(=O)(=O)Nc1ccc(F)c(F)c1,.,5%[46.1 µM],50%[activator],8%[46.1 µM],.,7%,1%,6%
O=C(O)CC12C[C@H]3C[C@@H](C1)CC(n1ncc(N4CCN(c5ccccc5)CC4)c(Cl)c1=O)(C3)C2,18%,0%,-5%,11%,-1.8%,20%,19%,4%
CCOc1ccc(CCNC(=O)c2cccc(-n3cnnn3)c2)cc1OCC,.,18%,-21%,-7%,.,.,-3%,-4%
COc1ccc(OC(=O)c2cn(C)nc2C(F)(F)F)cc1,-11%,?,31%[activator],-10%,1.7%,-5%,-15%,-2%
Cn1c2ccc(F)cc2c2nc3ccccc3nc21,.,?,15%,13%[46.1 µM],.,-13%,?,-11%
NS(=O)(=O)c1ccc(CCNC(=O)COC(=O)/C=C/c2cc(Br)ccc2F)cc1,.,?,-4%,?,.,.,115%,15%
Cc1ccccc1OC(C)C(=O)Nc1ccc(S(=O)(=O)N2CCCC2)cc1 (stereo unspecified),.,-21%,-18%,-17%,.,-6%,-5%,-2%
Cc1c(C#N)c(O)n(CCO)c(=O)c1N=Nc1ccccc1,.,1%[46.1 µM],-22%,0%[46.1 µM],.,3%,-25%,1%
Cc1noc(C)c1CS(=O)(=O)c1ccc(Br)cc1,-21%,?,-11%,1%,3.2%,-1%,0%,0%
Cc1ccccc1-c1nc(CN2CCC(C(=O)NCCCN3CCCC(C)C3)CC2)c(C)o1 (stereo unspecified),.,?,-13%,?,.,-1%,-11%,-3%
O=c1cc(O)nc[nH]1,.,.,-17%,.,.,5%,-9%,2%
CCCCN(C)Cc1cc(=O)oc2ccc3ccccc3c12,.,.,-19%,.,.,0%,3%,1%
COc1ccc(-c2csc(=NCCO)n2-c2ccccc2)cc1,.,?,18µM*,-29%[46.1 µM],.,-5%,10%,2%
COc1cccc(C2=NS(=O)(=O)N(C)C(C(=O)Nc3cccc(O)c3)=C2)c1,11%,?,-25%,-27%[46.1 µM],-5.5%,.,.,.
O=C(COc1ccccc1-c1ccccc1)NCc1ccco1,.,?,-3%,20%[46.1 µM],.,.,4%,2%
CCn1c(CCNC(=O)c2cccs2)nnc1SCC(=O)NC1CCCCC1,2%,4%,10%,7%,5.2%,-1%,5%,3%
Cc1cc(C)n2nc[n+](C)c2n1,-4%,-13%,0%,3%,5.0%,-7%,50%,3%
COc1ccccc1C(C(=O)NCc1ccc(F)cc1)N(C(=O)c1csnn1)C1CC1 (stereo unspecified),.,3%[46.1 µM],11%,11%,.,6%,20%,-2%
CCCCC(CC)C(=O)Nc1ccc(S(=O)(=O)N2CCCC2)cc1 (stereo unspecified),.,.,-17%,.,.,-9%,17%,-2%
Cc1ccc(SCC2(O)CCN(S(=O)(=O)c3ccc(Cl)cc3)CC2)cc1,-1%,?,?,-27%,-5.2%,0%,-11%,-60%

# (list continues)
SMILES,Cruzain inh noDet,MARV entry inh,2A StopGo,LASV entry inh,Cruzain inh Det,NS1 function inh,RE007 growth inh,SARS PLP yeast
CC(C)c1cnc2c(c1SCC(=O)NCc1ccccc1Cl)c(=O)n(C)c(=O)n2C,-1%,.,7%,-16%[46.1 µM],0.3%,.,.,.
CCOc1ccc(CCNC(=O)c2cc3cc4cc(OC)ccc4nc3s2)cc1OCC,-4%,-25%[46.1 µM],28%,2%[46.1 µM],-2.7%,.,.,.
CCCC(=O)Nc1cc2c(cc1C(=O)c1ccccc1)OCCO2,-4%,0%,-9%,-4%,-6.3%,-7%,1%,19%
CCSc1nc2ccccc2n1Cc1nc(N)nc(N(C)C)n1,-2%,-13%,.,19%,-1.3%,0%,10%,6%
Cn1c(SCC(=O)N2CCOCC2)ncc(C(=O)Nc2ccc(F)cc2)c1=O,0%,.,-12%,-2%[46.1 µM],-0.2%,.,.,.
COc1ccc(C)cc1Nc1n[n+](-c2ccccc2)c(-c2cc(OC)c(OC)cc2Br)s1,.,.,-3%,.,.,9%,-11%,3%
O=C(NCC1CCCO1)c1ccc(S(=O)(=O)Nc2ccccc2F)cc1 (stereo unspecified),.,-16%[46.1 µM],0%,?,.,.,-8%,0%
Cc1ccc(C)c(N(CC(=O)NC2CCCC2)C(=O)c2csnn2)c1,.,-1%[46.1 µM],10%,-7%,.,6%,40%,-1%
O=C(CSc1nnc2ccccn12)Nc1ccc(S(=O)(=O)N2CCOCC2)cc1,.,1%,-5%,1%,.,3%,1%,1%
COCCN1CCN(C(=O)c2ccc3nc(Cc4ccc(OC)c(OC)c4)oc3c2)CC1,.,?,?,-18%,.,16%,-6%,1%
CSCCC(NC(=O)c1ccco1)C(=O)N1CCCCCCC1 (stereo unspecified),.,8%,-11%,-9%[46.1 µM],.,.,1%,0%
CC(=O)N1CCN(c2ccc(NC(=O)c3cc4ccccc4o3)cc2)CC1,.,.,17%,.,.,23%,2%,5%
CC(C)NC(=O)c1nn2c(C(F)(F)F)cc(-c3ccco3)nc2c1Cl,.,-5%[46.1 µM],-8%,5%[46.1 µM],.,4%,-9%,-1%
O=C(CNc1cccc(S(=O)(=O)N2CCCC2)c1)Nc1cccc(F)c1,.,?,-23%,2%,.,.,1%,-2%
CCSc1nsc(NC(=O)Nc2ccc(F)cc2F)n1,.,.,12%,.,.,-44%,-23%,-3%
COc1ccccc1CN=C1NC(=O)C(CC(=O)Nc2ccc(C(C)=O)cc2)S1 (stereo unspecified),.,-2%[46.1 µM],3%,-8%,.,1%,-3%,0%
O=C(NCc1ccccc1)N1CCC(Cc2ccccc2)CC1,.,-12%,-2%,-1%,.,13%,7%,1%
Cc1ccccc1NC(=O)CSc1nc(Nc2ccccc2)nc(N2CCOCC2)n1,1%,?,-23%,-4%,-9.0%,-26%,9%,-11%
COc1cccc(N(C(=O)c2snc(C(N)=O)c2N)C(C(=O)NCc2ccccc2)c2ccc(O)cc2)c1 (stereo unspecified),.,-10%[46.1 µM],15%,?,.,-3%,-3%,-5%
O=C(N/N=C/c1c[nH]c2ccccc12)c1cc(-c2ccc(-c3ccccc3)cc2)n[nH]1,7.9µM*,?,?,-16%,-6.2%,24%,3%,-2%
O=C(CCS(=O)NCc1ccccc1)NCc1ccccc1 (stereo unspecified),-4%,-1%,.,.,1.6%,-9%,.,6%
CCC(=O)OC1(C)C(=O)C=C2C=C(CCCC(=O)OC)OC=C2C1=O (stereo unspecified),-12%,-23%&-23%[14.2 µM],-15%,.,-0.3%,.,-5%,.
Cc1ccc(OCC(=O)NCC(=O)OCc2cc(=O)n3nc(C(C)C)sc3n2)cc1,1%,.,7%,8%[46.1 µM],-2.2%,.,.,.
CC(C)c1csc(CN2CCC(CO)(Cc3cccc(F)c3)CC2)n1,.,-5%,?,-8%,.,1%,-2%,-1%
COC(=O)c1ccc(-n2c(C)cc(C(=O)COC(=O)C3=COCCO3)c2C)cc1,.,0%[46.1 µM],-16%,14%[46.1 µM],.,.,13%,-3%

# (list continues)
SMILES,Cruzain inh noDet,MARV entry inh,2A StopGo,LASV entry inh,Cruzain inh Det,NS1 function inh,RE007 growth inh,SARS PLP yeast
CCn1ncc(Br)c1C(=O)Nc1cc(C)cc(C)c1,5%,3%,-4%,-12%,-1.5%,-7%,6%,3%
CCc1ccc(Nc2sc(C(=O)c3ccc(F)cc3)c(N)c2S(=O)(=O)c2ccccc2)cc1,7.9µM*,?,-3%,?,-4.3%,.,.,.
O=C(Nc1ccc2nc(SCCOc3ccccc3Cl)sc2c1)c1ccco1,-7%,-1%[46.1 µM],-21%,3%[46.1 µM],-2.1%,.,.,.
Cc1cc2nnc(SC(C)C)n2c2ccccc12,0%,5%,3%,-6%,-3.4%,-10%,?,-6%
CCOC(=O)C1=C(C)N=c2s/c(=C\c3ccc(O)c([N+](=O)[O-])c3)c(=O)n2C1c1ccccc1OC (stereo unspecified),.,-22%[46.1 µM],?,-6%[46.1 µM],.,29%,20%,-10%
Cc1ccc(C)c(OCCCC(=O)N2CCOCC2)c1,.,10%,13%,2%,.,-1%,0%,-1%
Cc1cc(C)c(NC(=O)C2CCCN(S(=O)(=O)c3c(C)noc3/C=C/N(C)C)C2)c(C)c1 (stereo unspecified),.,.,-11%,.,.,14%,-3%,-4%
CCOc1ccc(C(=O)CCC(=O)NC2=NCCS2)cc1,.,-1%[46.1 µM],-1%,2%,.,.,-26%,-26%
CCN(CC)CCN=Cc1c(O)n(C2CCCCCC2)c(=O)[nH]c1=O,-4%,5%,-7%,9%,-3.2%,8%,4%,-6%
Cc1ccc(Nc2nnc(SCC(=O)N(C)C3CCS(=O)(=O)C3)s2)cc1 (stereo unspecified),.,?,26%,.,.,8%,-4%,-2%
CCc1c(C#N)c(N)nc(SCC(=O)OCc2ccccc2)c1C#N,5%,-3%,2%,?,-7.5%,-15%,-1%,0%
Cc1ccc(NC(=O)N(C2=NCC(C)S2)c2ccccc2)cc1 (stereo unspecified),.,?,46%[activator],3%,.,-36%,1%,.

# Bioassay records deposited in PubChem BioAssay by National Center for Advancing Translational Sciences (NCATS).
